Screening data (PubChem BioAssay)
TRPML1 agonist – activates the human TRPML1 channel; Q9GZU1; TRPML1-expressing cells, Ca2+ dye fluorescence, FDSS; host cell line not named in the record; reference of the full effect not given here; activation, % (concentration not given with the values); 410,000 tested, 0.12% active; in the data active = activation above about 50%; inconclusive = about 30% to 50%; inactive = below about 30%; further: 0% is about no effect; the text of the record puts the active cut at 80%
Target sequence (Q9GZU1 whole entry, looked up): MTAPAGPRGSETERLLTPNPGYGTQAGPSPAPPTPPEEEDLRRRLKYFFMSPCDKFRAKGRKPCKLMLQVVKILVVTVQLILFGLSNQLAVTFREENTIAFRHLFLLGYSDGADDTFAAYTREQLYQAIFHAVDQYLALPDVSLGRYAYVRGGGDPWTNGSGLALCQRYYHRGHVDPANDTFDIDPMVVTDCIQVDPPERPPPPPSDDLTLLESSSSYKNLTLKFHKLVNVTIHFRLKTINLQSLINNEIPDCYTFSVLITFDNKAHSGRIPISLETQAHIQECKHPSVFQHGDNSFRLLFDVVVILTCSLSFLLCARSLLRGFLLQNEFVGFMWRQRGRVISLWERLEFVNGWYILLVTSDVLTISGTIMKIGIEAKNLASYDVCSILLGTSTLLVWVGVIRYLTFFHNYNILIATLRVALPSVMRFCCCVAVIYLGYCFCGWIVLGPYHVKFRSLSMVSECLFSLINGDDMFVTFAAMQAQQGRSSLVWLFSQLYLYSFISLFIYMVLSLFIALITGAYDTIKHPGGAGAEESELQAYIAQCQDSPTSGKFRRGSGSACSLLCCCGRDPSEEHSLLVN
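Tetracycline-induced TRPML1-DL cells are seeded and incubated overnight before loading with a no-wash Ca2+ dye and quencher. Agonist activity is taken from the 110 s fluorescence read following compound pin-transfer on an FDSS, before EC80 54-4 challenge.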
TRPML1 inh – inhibitors of human TRPML1 channel; TRPML1-inducible cells, Ca2+ dye fluorescence, FDSS; stronger effect = lower value; inhibition of EC80 agonist-evoked calcium signal; 390,000 tested, 0.02% active; activity change, negative = inhibition, % (no concentration beside the values); in the data active means activity change below about -50%; inconclusive means about -30% to -50%; inactive means above about -30%;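 further: stimulus is agonist 54-4 at its EC80 concentration; on the % scale 0 is the no-effect control and ±100 the full control effect; compound concentration not given in the record; the text of the record puts the active cut at -80%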
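TRPML1-DL cells, Tet-induced overnight (~16 h, 37 °C) at 1,500 cells/well, were loaded with Ca8 no-wash dye plus quencher for 45-90 min at room temperature. Compounds were pinned during FDSS kinetic reading; agonist 54-4 at EC80 (4 uM final) then added.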
TRPV1 potentiator – potentiators of human vanilloid receptor 1 (TRPV1); TRPV1-expressing cells, Fluo-8 calcium influx, capsaicin EC20 potentiation; host cell line not named in the record; control for the full effect not named in the record; potentiation, % at 8.33 µM; 320,000 tested, 0.02% active; active means potentiation above 80%; inconclusive means 30% to 80%; inactive means below 30%; further: 0% is about no effect
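TRPV1-expressing cells were cultured overnight at 35.5C and loaded with Fluo-8 calcium dye for 40 to 90 min at room temperature. After a 10 s baseline, compound was added and calcium influx was read kinetically for 3 min (ex 480/em 520 nm).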
ClpP mod – qHTS Assay for Activators of ClpP; ATP-dependent Clp protease proteolytic subunit (Bacillus subtilis (strain 168)), P80244; purified B. subtilis ClpP, FRET peptide cleavage, 20 min; Potency, µM (doses to about 57.5 µM), for inactives: at the highest dose activity change, negative = active; 340,000 tested, 1.9% active; AID 651965, 2013; active = well fitted falling curve with a large enough effect; inconclusive = small, poorly fitted or top-dose-only effect; inactive = no such curve, though single readings can be large or run the other way; further: potency means the concentration at half of the fitted maximal effect; the source files actives as falling curves though it sought activators and does not explain the sign; nearly all actives have a fitted effect of over 65% in size; many hits overshoot -100%
Target sequence (P80244 whole entry, looked up): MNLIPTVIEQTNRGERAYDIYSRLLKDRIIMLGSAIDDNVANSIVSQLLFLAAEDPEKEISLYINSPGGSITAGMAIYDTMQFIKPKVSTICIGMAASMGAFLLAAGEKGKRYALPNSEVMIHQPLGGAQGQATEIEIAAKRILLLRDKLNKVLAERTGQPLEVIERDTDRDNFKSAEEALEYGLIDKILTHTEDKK
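Purified B. subtilis ClpP, 10 microg/mL final in Tris/HCl pH8 with KCl, BSA, glycerol and Tween-20, cleaved an Abz/nitrotyrosine-quenched decapeptide. Fluorescence (ex 320, em 430) was read at 0 and 20 min at room temperature. Delta was normalized to 5.8 microM ADEP and DMSO/no-enzyme controls.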
PINK1 expr mod – modulators of PINK1 expression | PINK1 immunofluorescence, high-content cytometry, 24 h | Potency, µM (top dose mostly 76.6 µM), without a hit: at the highest dose activation (PINK1 increase), usual class: activators | 410,000 tested, 0.2% active | AID 624263; active = well fitted activation curve with a large enough effect; inconclusive = small, poorly fitted or top-dose-only effect; inactive = flat fitted curve, though single readings scatter; cell line not stated here;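 further: potency means the concentration at half of the fitted maximal effect; % of control where 0% means no effect; nearly all actives have a fitted effect of over 65% in size; a mitochondrial uncoupler was the plate control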
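Measures PINK1 amount and localization on or inside mitochondria by immunofluorescence. Stable cells get compounds at 5 concentrations for 24 hours before fixation and staining; CCCP controls included.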
Sfp inh – inhibitors of Bacillus subtilis Sfp phosphopantetheinyl transferase; Biochemical Sfp PPTase activity, qHTS; Potency, µM, inactives show max response, negative = inhibition, hits mostly inhibitors; 310,000 tested, 3.5% active; active means well fitted inhibition curve with a large enough effect; inconclusive means small, poorly fitted or top-dose-only effect, or another doubt; inactive means no such curve, though single readings can be large or run the other way;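 further: the enzyme is Sfp with the accession as filed and its product quenches rhodamine fluorescence; potency means the concentration at half of the fitted maximal effect; 0% = enzyme reaction without inhibitor and -100% = no enzyme wells; top concentration of the series not given in the record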
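Step 1, compound plus 15 nM Sfp-PPTase, 15 min, room temperature. Step 2, add rhodamine-CoA (5 uM) and BHQ-2-YbbR (12.5 uM). Step 3, read 525/598 nm fluorescence at 0 and 30 min.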
Menin-MLL FL inh – menin-MLL binding inhibition, fluorescein peptide; Fluorescence polarization, fluorescein-MLL peptide displacement from menin; 290,000 tested, under 10 active; FP activity change, % at 61.4 µM; inconclusive = falling polarisation curve, or a change in total fluorescence; inactive = total fluorescence flat and polarisation flat or rising; no compound was filed as active; the % refers to the polarisation; negative = inhibition;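 further: % of control where 0% means no effect; inhibitors lower the polarisation; unlabelled MLL peptide was the positive control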
Starred values were filed as active, the others as inactive; u = inconclusive; x = no result given; & = joins results of further samples; [ ] = dose if it differs, or a comment.

Fields – Menin-MLL FL inh	TRPML1 agonist	TRPV1 potentiator	PINK1 expr mod	Sfp inh	ClpP mod	TRPML1 inh
CC12CCC(C(=O)O)(c3nc4cc([N+](=O)[O-])ccc4nc31)C2(C)C (configuration not stated)
  5.3	0.7	-3	2.9%	3%	x	-17
C[C@@H]1C=C[C@](Cc2ccccc2)(C(=O)NCCc2c[nH]c3ccccc23)N1C(=O)c1ccccc1
  4.8&-7.1	1.5	-27	18%	17%&14%	1.2%	12
CNC(=S)N/N=C/c1ccc(-c2ccc(C(=O)O)cc2)o1
  3.3	x	2	2.3%	45µM*	4.3%	x
CC1CCCCN1S(=O)(=O)c1ccc2c(c1)C(C)(C)C(=O)N2C (configuration not stated)
  -2.7	0.6	5	-0.5%	-2%	-1.2%	-10
COc1cc2cc(CNc3ccccc3)c(=O)n(CC(=O)Nc3cc(C)cc(C)c3)c2cc1OC
  x	4.0	x	0.5%	x	3.9%	-5
CCc1ccc(OCC(=O)NNC(=O)c2cnccn2)c(Br)c1
  x	0.5	0	0.1%	20%	-2.3%	-5
CC(=O)Nc1ccc(-n2c(C)ccc2C)cc1
  2.5	0.6	-1	0.8%	16%	1.3%	2
CCN(CC)c1ccc(/C=N/Nc2nc(C)cc(=O)[nH]2)cc1
  4.1	-0.4	-2	0.9%	-17%	-25%	1
COc1ccc(C(=O)Nc2cc(OC)c(Cl)cc2Cl)cc1
  -0.8	2.9	-36	2.6%	-8%	x	-10
NC(=O)/C(=C\c1ccncc1)c1cccc2ccccc12
  6.3	2.4	13	-0.9%	7%	0.0%	3
COc1cc(CCC(=O)OCC(=O)NCCc2ccc(S(N)(=O)=O)cc2)cc(OC)c1OC
  x	0.3	x	-0.2%	x	-3.4%	7
O=C(CC1C(=O)NCCN1Cc1c(F)cccc1Cl)NCCC1=CCCCC1 (configuration not stated)
  -0.5	-0.6	26	-1.1%	28%	-1.3%	-3
Cc1cccc(C)c1N(CC(=O)N/N=C/c1cc(Br)c(C)o1)S(C)(=O)=O
  -0.7	0.8	3	3.9%	-4%	-8.8%	70
Cc1ccc2nc(-c3cc(N)cc(N)c3)oc2c1
  -1.9	-1.1	13	-0.4%	12%	u	10
Cc1ccc(-n2nc3c(N4CCCC(C(=O)NCCc5ccccc5)C4)nnc(C)c3c2C)cc1 (configuration not stated)
  x	2.5	x	0.3%	x	4.1%	49
O=C(Nc1cc(C(F)(F)F)ccc1N1CCOCC1)c1ccccc1F
  2.1	0.5	-14	0.0%	10%	32%	10
COc1ccc(CCNC(=O)COC(=O)Cc2ccc(OC)cc2)cc1
  5.1	0.8	-3	2.4%	15%	-3.9%	2
CC(CNC(=O)c1ccc(-c2ccccc2)cc1)CN(C)C (configuration not stated)
  0.9	-0.2	-4	0.4%	16%	-0.8%	-6
O=C(Nc1ccc2ccccc2c1)/C(=C\c1ccc2c(c1)OCO2)NC(=O)c1ccco1
  3.2	1.6	19	1.5%	1%	-6.8%	9
Cc1ccc(CN2CCN(Cc3ccc(Oc4ncccn4)cc3)CC2CCO)cc1 (configuration not stated)
  4.9	-0.2	3	0.4%	31%	-3.3%	-12
FC(F)(F)c1ccc(Oc2ccccc2Cl)nc1
  -0.7	-0.3	9	11%	-4%	-4.8%	-3
CCOC(=O)c1ccccc1NC(=O)N(C(C)C)C1CCN(C(C)=O)CC1
  x	-1.2	x	-0.5%	x	28µM*	6
CN(C)S(=O)(=O)c1ccc(C(=O)N(Cc2cccnc2)c2nc3c(F)cc(F)cc3s2)cc1
  x	0.9	x	2.5%	x	1.8%	-24
CCc1ccc(NC(=O)C2CCN(S(=O)(=O)c3cccc(-c4noc(C)n4)c3)CC2)cc1
  x	1.2	x	1.0%	x	1.6%	-4
CNC(=O)c1ccc(-c2cc(C(F)(F)F)nn2C)s1
  -0.4	0.6	-25	-0.5%	0%	3.6%	17
O=C(CN1C(=O)c2ccccc2S1(=O)=O)NCc1ccccc1
  -2.8	-0.2	0	1.3%	20%	x	11
COC(=O)c1cn(NC(=O)/C=C/c2cccc(OC)c2OC)c(=O)c2ccccc12
  4.8	x	1	x	8%	x	x
CC(C)Nc1ccc(Nc2ccnc3cc4ccccc4cc23)cc1
  3.9	0.2	x	-4.0%	-19%	x	19
O=C(NCC[C@@H]1C[C@@H]2C=C[C@H]1C2)c1cc(COc2ccc(F)cc2F)on1
  -1.9	-0.7	-9	u	3%	-0.9%	-13
Cc1ccc(S(=O)(=O)CCN2CCN(c3ccccn3)CC2)cc1
  0.2	-0.4	8	-0.8%	16%	-1.4%	3
COc1ccc(CCNC(=O)CCC(=O)N2CCN(S(=O)(=O)c3ccccc3)CC2)cc1OC
  5.6	-0.3	4	2.1%[38.3 µM]	13%	0.2%	0
Cc1ccc(Nc2nc(-c3ccc(O)c(O)c3)cs2)nc1
  -3.4	2.7	-9	-4.1%	35µM*	x	40
CCC(=O)Nc1cc(C)c(NC(=O)c2ccco2)cn1
  0.7	0.6	-18	2.8%	10%	-0.8%	22
Cc1c(C)c2ccc(OS(C)(=O)=O)c(C)c2oc1=O
  2.2	-0.3	-8	-1.3%	7%	-4.9%	0
O=c1[nH]cnc2c1ncn2[C@@H]1C[C@@H](O)[C@H](CO)O1
  2.7	0.3	-6	3.2%	11%	-1.9%	-12
Cc1cc(C)n(S(=O)(=O)c2cccc([N+](=O)[O-])c2)n1
  -3.5	-1.0	6	-0.7%	8%	-4.9%	-8
COc1cccc(CNC(=O)Cn2ccc3cc(S(=O)(=O)N4CCC(C)CC4)ccc32)c1
  5.3	1.2&1.0	-1	2.2%&7.6%	3%	-2.5%&-8.8%	4&-6
COC(=O)Cc1c(C)c2ccc(OCc3nn[nH]n3)cc2oc1=O
  1.3	0.3	-1	-3.1%[38.3 µM]	-3%	49%	4
O=[N+]([O-])c1cc(C2Nc3cccc4cccc(c34)N2)ccc1Cl
  8.7	0.0	14	12%	u	-2.0%	3
COc1ccc(Cl)cc1S(=O)(=O)NC(C)C(=O)NCCN1CCOCC1 (configuration not stated)
  x	0.6	x	2.1%	x	x	-6
CCN1CCN(c2cc(C(C)(C)C)nc3c(-c4ccccc4)c(C)nn23)CC1
  1.0	-0.1	-5	15%[38.3 µM]	u	u	15
CCc1ncc(CN2CCCC(C(=O)Nc3cccc(-c4ccc(F)cc4)c3)C2)cn1 (configuration not stated)
  x	-0.6	3	4.2%	8%	1.8%	-6
CC(=O)c1cnc2nc(SCc3ccc(Cl)cc3)nn2c1C
  -5.0	0.5	u	1.6%	-10%	-0.3%	14
NS(=O)(=O)c1ccc2nc(NC(=O)c3ccncc3)sc2c1
  -0.9	-0.3	2	0.4%	-12%	x	-1
O=C(Cc1ccccc1)NCCc1cn2ccsc2n1
  3.2	0.2	x	0.2%	-2%	-2.1%	-9
Cc1cc(-c2ccc(C(C)C)c(S(=O)(=O)Nc3cc(C)on3)c2)on1
  -4.2	-0.4	14	1.4%	17%	-9.8%	3
CCOC(=O)C1=C(C)NC(C)=C(C(=O)OCC)C1c1ccco1
  1.7	1.2	2	2.8%	-13%	-23%	0
CC(C)(C)c1ccc(NC(=O)CSc2nnc3scc(-c4ccccc4)n23)cc1
  x	2.6	x	-0.8%	x	-1.1%	15
Cc1ccc2nc(N3CCN(C=O)CC3)nc(-c3ccccc3)c2c1
  1.9	0.5	-16	x	-29%	-8.5%	-13
O=c1cc(N2CCc3ccccc32)[nH]c(=O)n1Cc1ccc(F)cc1
  4.2	-0.1	-6	x	-9%	-2.4%	-6

Other entries follow:
Fields – Menin-MLL FL inh	TRPML1 agonist	TRPV1 potentiator	PINK1 expr mod	Sfp inh	ClpP mod	TRPML1 inh
COc1ccccc1Nc1ncccc1[N+](=O)[O-]
  -0.6	-0.6	22	3.6%	0%	x	-7
CN(C(=O)CSc1nc2ccccc2c(=O)n1-c1ccccc1F)C1CCS(=O)(=O)C1 (configuration not stated)
  x	-0.5	x	0.1%	x	x	-18
CCCn1ccnc1SCC(=O)Nc1c(C)n(C)n(-c2ccccc2)c1=O
  x	-0.2	0	-3.1%	x	-1.4%	3
CN(C)c1ccc(CC(=O)N2CCCCC2c2cc(C(=O)Nc3ccccc3Cl)no2)cc1 (configuration not stated)
  x	-0.6	x	1.6%	x	-1.5%	x
O=C(Nc1nncs1)C1c2ccccc2Oc2ccccc21
  2.4	4.2	-4	-3.8%[38.3 µM]	14%	-0.5%	10
CCC(C(=O)NCCC(C)C)N(C(=O)Cn1nnc(-c2ccc(C)cc2)n1)c1cccc(O)c1 (configuration not stated)
  x	2.6	x	4.6%	x	3.2%	-11
COc1ccccc1C1NC(=O)c2n[nH]c(-c3cccs3)c21 (configuration not stated)
  x	0.5	x	3.4%	x	-9.5%	8
O=C(NCc1ccncc1)c1ccc(NS(=O)(=O)c2ccc(F)cc2)cc1
  x	0.1	3	-0.1%	x	3.0%	-1
CCOC(=O)c1c(NC(=O)CN2CCCCC2)sc2c1CCCC2O (configuration not stated)
  4.1	1.6	-5	2.0%	-15%	-9.6%	-1
COc1cc2c(cc1OC)C(C)N(C(=O)Nc1ccccc1)CC2 (configuration not stated)
  -7.4	-0.7	-26	12%	11%	1.4%	8
Cc1cc(C)cc(N(C(=O)Cn2nnc(-c3ccccc3)n2)C(C(=O)NC2CCCCC2)c2ccccn2)c1 (configuration not stated)
  3.2	3.1	25	8.5%	-7%	0.7%	0
Cc1ccc(OCC(=O)c2ccc3c(c2)CCCC3)cc1C
  6.6	2.2	5	3.4%	0%	-4.0%	-4
COc1ccc(C(CNC(=O)c2cc3c(s2)CCCC3)N2CCOCC2)cc1 (configuration not stated)
  x	-0.3	-6	-0.8%	-2%	-2.4%	6
CSc1nc2c(c(C(F)(F)F)n1)CC(C)CC2 (configuration not stated)
  -0.6	-0.7	0	-0.9%	5%	-0.2%	24
CC1(c2nnc(-c3ccncc3)o2)CC(c2ccc(Cl)cc2)=NO1 (configuration not stated)
  x	-0.3	x	0.4%	x	-11%	22
CCCc1nc2c3ccccc3ccn2c1Cc1ccc(C)cc1
  x	0.1	x	u	x	u	x
